TDP1 inh: inhibitors of human tyrosyl-DNA phosphodiesterase TDP1; recombinant TDP1, AlphaScreen DNA substrate cleavage; Potency, µM (top dose mostly 130 µM), for inactives: top-dose activity change, negative = inhibition, usual class: inhibitors; AID 485290; 350,000 tested, 0.28% active; also: nearly all actives have a fitted effect of over 40% in size
Target sequence (Q9NUW8 whole entry, looked up): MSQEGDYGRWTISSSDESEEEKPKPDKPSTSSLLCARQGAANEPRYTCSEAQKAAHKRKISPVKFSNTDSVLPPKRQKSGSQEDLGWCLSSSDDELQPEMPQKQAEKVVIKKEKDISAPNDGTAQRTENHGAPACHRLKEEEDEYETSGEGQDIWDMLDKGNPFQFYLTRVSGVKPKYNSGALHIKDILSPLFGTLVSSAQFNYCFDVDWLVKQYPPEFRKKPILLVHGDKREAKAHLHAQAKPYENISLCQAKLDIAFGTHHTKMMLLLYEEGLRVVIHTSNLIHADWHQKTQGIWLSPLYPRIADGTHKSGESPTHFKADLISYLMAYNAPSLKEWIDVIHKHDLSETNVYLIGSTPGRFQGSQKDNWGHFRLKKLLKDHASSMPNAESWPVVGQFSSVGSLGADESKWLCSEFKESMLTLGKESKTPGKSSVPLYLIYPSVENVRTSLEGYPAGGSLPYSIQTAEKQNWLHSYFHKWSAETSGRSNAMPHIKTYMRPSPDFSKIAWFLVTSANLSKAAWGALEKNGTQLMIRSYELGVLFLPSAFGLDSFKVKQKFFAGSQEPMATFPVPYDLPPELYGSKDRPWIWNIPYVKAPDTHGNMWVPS
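Steps: enzyme plus compound, 15 min RT; add biotin/phosphotyrosine-FITC oligonucleotide (15 nM final), react 5 min; add donor/acceptor beads (10 ug/ml final), 10 min; read AlphaScreen. Tdp1 at 1 nM final.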
N370S GC: N370S glucocerebrosidase modulation, Gaucher chaperone candidate; P04062; N370S GC spleen homogenate, 4MU-glucoside fluorescence; 330,000 tested, 0.092% active; Potency, µM (highest dose often 59.4 µM), inactives show at the top dose activity change, negative = inhibition, usual class: inhibitors;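 also: 0% = full enzyme activity and -100% = no enzyme basal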
The depositor's hits bear a star; ? = inconclusive; nt = not tested or not shown; & = joins results of further samples; [ ] = another dose, or the depositor's remark. Calls follow the shape of the dose curve; as a rule, active = well fitted curve in the direction sought with a large enough effect; inconclusive = small, poorly fitted or top-dose-only effect, or another doubt; inactive = no such curve, though single readings can be large; an effect the other way counts as inactive or inconclusive. Unless noted, % is scaled to controls: 0 for no effect and ±100 for the full control effect; potency is read from the fitted curve at half-maximal effect.

TDP1 inh | N370S GC | SMILES
nt | 0.6% | Cc1ccc(C23CC4CC(CC(CC(=O)NC(C)(C)CO)(C4)C2)C3)cc1
4.3% | -15.3% | Cc1cccc(N2CCN(C(=O)c3ccc(Cl)c(NC4=NC5CS(=O)(=O)CC5S4)c3)CC2C)c1 (stereo unspecified)
5.7% | 5.9% | O=C(Nc1ccc(-n2ccnc2P(=O)(O)c2ccccc2)cc1)c1ccccc1Br
2.0% | -9.3% | COCCCn1c(Cc2ccccc2)nnc1SCC(=O)N1CCCCC1
nt | 3.3% | Nc1cc2sc(-c3ccc(C(=O)O)cc3)nc2cc1Cl
2.1% | -17.1% | Cc1cccc(SCc2noc(C(=O)NC(C)C)c2C(=O)O)c1
nt | 2.3% | COc1ccc(/C(C)=N/NC(=S)NCCc2ccccc2)c(O)c1
5.5% | 1.3% | C/C(=N\Nc1nc(Cl)c(Cl)cc1Cl)c1ccc(S(=O)(=O)NCc2ccco2)cc1
5.3% | 0.3% | Cc1cc(C)n(-c2ccc(C(=O)Nc3ccc(S(=O)(=O)N(C)C)cc3)cc2)n1
2.9% | 7.6% | O=C(Nc1ccc2c(c1)Cc1ccccc1-2)c1ccco1
2.2% | -2.8% | C=CCn1c(SCCC(=O)O)nnc1-c1cccs1
0.4% | nt | COc1ccc(CCC(=O)OCC(=O)NCc2ccc3c(c2)OCO3)cc1

Three structures from above, arranged by molar mass, largest number first:
TDP1 inh | N370S GC | SMILES
0.4% | nt | COc1ccc(CCC(=O)OCC(=O)NCc2ccc3c(c2)OCO3)cc1
nt | 3.3% | Nc1cc2sc(-c3ccc(C(=O)O)cc3)nc2cc1Cl
2.9% | 7.6% | O=C(Nc1ccc2c(c1)Cc1ccccc1-2)c1ccco1

(next part)
TDP1 inh | N370S GC | SMILES
4.5% | -10.2% | Cc1ccc(OCC(O)CN2CCN(CC(O)COC(C)C)CC2)c(C(C)(C)C)c1 (stereo unspecified)
1.3% | -2.6% | CCOC(=O)C1=C(C)Nc2ncnn2C1c1c[nH]c2ccccc12 (stereo unspecified)
nt | -3.7% | COc1ccc(/C=C2\SC(=O)N(CCC(=O)N3CCN(C)CC3)C2=O)cc1
2.9% | -3.7% | O=C1c2ccccc2C(=O)N1Cc1nc(-c2ccncc2)no1
0.0% | -9.0% | COc1ccc(CSc2n[nH]c(C)n2)cc1[N+](=O)[O-]
6.6% | 0.8% | Cn1c(CNC(=O)c2ccccc2F)nnc1SCC(=O)Nc1nncs1
8.0% | -6.9% | COc1cccc(CNC(=O)[C@H](CCSC)NC(=O)N2CCn3c2nc2ccccc23)c1
4.8% | -1.8% | Cn1c(CNc2nc3ccccc3n2CCN2CCCCC2)nc2ccccc21
2.1% | 1.3% | CC(=O)c1ccc(N2CCN(CCC#N)CC2)c(F)c1
5.9% | -8.5% | COc1ccc(C2CC2/C(=N/O)c2ccccc2)cc1 (stereo unspecified)
7.0% | 0.3% | CCOC(=O)N1CCC2(CC1)C(C#N)=C(N)Oc1n[nH]c(C)c12
nt | -8.7% | O=C(Cc1ccccc1F)NC1CCCN(Cc2ccc(Cl)cc2)C1 (stereo unspecified)

Whole records from above.
Cc1ccc(OCC(O)CN2CCN(CC(O)COC(C)C)CC2)c(C(C)(C)C)c1 (stereo unspecified) is listed with TDP1 inh: 4.5%; N370S GC: -10.2%
CCOC(=O)N1CCC2(CC1)C(C#N)=C(N)Oc1n[nH]c(C)c12 is listed with TDP1 inh: 7.0%; N370S GC: 0.3%

Next part:
TDP1 inh | N370S GC | SMILES
nt | -0.2% | Cc1ccc(CNC(=O)C2CCC(=O)N2Cc2ccc(F)cc2)cc1 (stereo unspecified)
1.4% | -3.4% | Cc1ccc2cc(NC(=O)Cc3ccccc3)ccc2n1
nt | -2.1% | CCOC(=O)C1CCCN(C2=NC(=O)/C(=C/c3ccc(OC)cc3)S2)C1 (stereo unspecified)
0.3% | 2.7% | O=C(Nc1cccc(F)c1)NC1CCCCCCC1
5.4% | -3.0% | CCN1CC(CN(C)Cc2nc(-c3ccc(C(F)(F)F)cc3)oc2C)CC1=O (stereo unspecified)
-19.2%[0.505 µM] | -3.7% | CC(C)CN(C(=O)c1cccc(S(=O)(=O)N2CCN(Cc3ccccc3)CC2)c1)C1CCS(=O)(=O)C1 (stereo unspecified)
1.3% | ? | S=c1nc(-c2ccccc2Cl)n(Cc2cccnc2)c2c1CCCC2
0.0% | 4.7% | CCCOc1nc2c(c(=O)n(C)c(=O)n2C)n1C
-5.1% | 18.2% | Cc1ccc(C(=O)N(Cc2nc3ccccc3c(=O)[nH]2)C2CCCC2)cc1
-1.2% | -1.9% | Cc1ccc(N2CC(O)=C(c3ccccc3)C2=N)cc1
4.5% | 0.8% | O=C(CSc1nc(C2CC2)nc2sc3c(c12)CCCC3)NCc1ccco1
0.6% | nt | COCC(C)NC(=O)CSc1nc2cc(S(=O)(=O)N3CCCCC3)ccc2o1 (stereo unspecified)

Nothing new here: 4 of the compounds above.
TDP1 inh | N370S GC | SMILES
0.0% | 4.7% | CCCOc1nc2c(c(=O)n(C)c(=O)n2C)n1C
-5.1% | 18.2% | Cc1ccc(C(=O)N(Cc2nc3ccccc3c(=O)[nH]2)C2CCCC2)cc1
-1.2% | -1.9% | Cc1ccc(N2CC(O)=C(c3ccccc3)C2=N)cc1
4.5% | 0.8% | O=C(CSc1nc(C2CC2)nc2sc3c(c12)CCCC3)NCc1ccco1

More results
TDP1 inh | N370S GC | SMILES
7.9% | -1.9% | O=C(Nc1ccc(N2CCCC2)c(Cl)c1)c1ccc([N+](=O)[O-])o1
-3.9% | -10.2% | CC(OC(=O)CC1CCCCC1)C(=O)Nc1cccc(C#N)c1 (stereo unspecified)
6.4% | 2.7% | Clc1ccc2c(c1)C=Nc1c(NCc3ccccc3)ncnc1O2
-5.9% | 7.9% | CCCNC(=O)c1onc(CSc2cccc(OC)c2)c1C(=O)NCCC
1.2% | -0.9% | CCC(C)[C@H](NC(=O)NCc1ccc(S(N)(=O)=O)cc1)C(=O)OC (stereo partly specified)
1.1% | 7.1% | O=C(Cn1cnc2ccccc2c1=O)N1CCN(Cc2ccc3c(c2)OCO3)CC1
-11.7% | -4.0% | CCn1c(SCC(=O)Nc2ccc3c(c2)OCO3)nnc1C(C)C
3.2% | -7.7% | Clc1ccc(CNC23CN4CN(CN(C4)C2)C3)c(Cl)c1
5.2% | -8.4% | O=C(c1ccco1)c1cn(CC(=O)N2CCCCC2)c2ccccc12
nt | -11.7% | CCCCN1C(=S)NC[C@@H]1Cc1ccc(O)cc1
nt | -1.5% | Cc1cc(OCc2nc3ccccc3s2)ccc1N
nt | -0.3% | Cc1ncc(C[n+]2ccc(C)c(C)c2)c(N)n1

Other entries
TDP1 inh | N370S GC | SMILES
7.9% | 18.9% | CCCCSCCCNC(=O)Nc1ccc(CC)cc1
1.0% | 4.7% | c1ccc(CCc2nc(-c3ccc(-n4cccc4)cc3)no2)cc1
4.5% | -0.6% | O=C(Cc1cccs1)N1CCN(S(=O)(=O)c2cccc([N+](=O)[O-])c2)CC1
1.6%&2.8% | -0.7% | O=C(CCn1ccc2cc(S(=O)(=O)N3CCCC3)ccc21)NCc1cccc(F)c1
2.2% | nt | O=C(COC(=O)/C=C/c1ccc(Cl)c(Cl)c1)NC1CC1
3.7% | -5.7% | CN(C)S(=O)(=O)c1ccc(NC(=O)c2ccc3ncsc3c2)cc1
4.8% | 1.6% | O=C(COc1ncnc2ccccc12)N1CCN(S(=O)(=O)c2ccccc2)CC1
5.7% | 3.9% | CCOP(=O)(OCC)/C(C#N)=C/c1cc(OC)ccc1OC
1.5% | -3.2% | O=[n+]1c2c(n([O-])c3ccccc31)CCCC2
nt | -8.9% | CCOCCCNC(=O)c1ccc2nc(-c3ccc(OC)c(OC)c3)c(-c3ccc(OC)c(OC)c3)nc2c1
2.0% | -2.4% | COc1ccc(-n2c(-c3cnccn3)n[nH]c2=S)cc1
nt | -9.3% | Cc1c(N2C(=O)/C(=C/C3CC=CCC3)SC2=S)c(=O)n(-c2ccccc2)n1C (stereo unspecified)

(further entries)
TDP1 inh | N370S GC | SMILES
nt | -2.0% | COc1ccc(-n2nnnc2CNC(=O)C2CC(=O)N(c3ccc(Cl)cc3)C2)cc1 (stereo unspecified)
50.1µM* | 1.8% | Cc1ccc2cc(C)c3nnc(SCC(=O)NCc4ccco4)n3c2c1
nt | 0.6% | O=C(CC1CCCC1)Nc1cccc(Br)c1
4.1% | -1.2% | O=C(Nc1ccc(S(=O)(=O)Nc2ncccn2)cc1)c1cccc(Br)c1
-5.1% | 29.6% | CCOC(=O)c1oc2ccc(/C=N/O)c(Cl)c2c1C
5.1% | 12.7% | Cc1ccc(CN2CCN(C3CCCC3)C(CCO)C2)s1 (stereo unspecified)
-2.6% | -20.5% | O=C(Nc1cccc(C(F)(F)F)c1)C(SCCO)c1ccccc1 (stereo unspecified)
2.6% | -2.1% | COc1ccccc1N(CN1C(=O)c2ccccc2C1=O)C(=O)c1cccc(C)c1
nt | -2.4% | CCOc1cc(CN2CCCC(CNC(=O)c3ccc(F)cc3)C2)ccc1OC (stereo unspecified)
3.1% | -3.5% | O=C(NCc1ccccc1)C(=O)NCC1OCCN1S(=O)(=O)c1ccc(Br)cc1 (stereo unspecified)
nt | -9.8% | COc1ccc(OC)c(NC(=O)C2CC(/C=C/c3ccccc3)=NO2)c1 (stereo unspecified)
3.1% | 1.7% | O=C(O)c1ccc(Cl)cc1NC(=O)C1CCCO1 (stereo unspecified)

Carrying on.
TDP1 inh | N370S GC | SMILES
9.4% | -14.4% | CCc1ccc(CN(Cc2cccnc2)C(=O)/C=C/c2ccc(OC)cc2)cc1
nt | -2.6% | COc1ccc(C)cc1NC(=O)CNCc1cccs1
1.2% | -1.5% | CCOC(=O)c1sc(-c2cccc([N+](=O)[O-])c2)cc1N
2.1% | 17.5% | O=C(Cn1c(=O)c2cccn2c2ccccc21)Nc1ccc(F)cc1F
3.9% | 0.4% | O=C1C(c2ccccc2)NC(=S)N1C1CCCCC1 (stereo unspecified)
8.4% | 1.7% | CCN(CCn1cccn1)Cc1cn[nH]c1-c1cccc2ccccc12
0.5% | 1.4% | O=C(O)C1CC1C(=O)N1CCN(c2ccc(Cl)c(Cl)c2)CC1 (stereo unspecified)
1.2% | -3.2% | CCN(CC)S(=O)(=O)c1ccc(C)c(N=C=S)c1
-6.3% | 21.5% | CCOC(=O)c1c(C)nc(C)c2c(=O)oc3ccccc3c12
0.4% | nt | O=C(COC(=O)COc1ccc(Br)cc1)NNC(=O)c1ccccc1
2.6% | 0.6% | Cc1ccc(S(=O)(=O)N2CCN(C(=O)CCC(=O)NCCc3ccc(S(N)(=O)=O)cc3)CC2)c(C)c1
6.0% | 0.2% | CCCCn1c(N)c(N(CC(C)C)C(=O)Cc2ccc3c(c2)OCCO3)c(=O)[nH]c1=O

(next part)
TDP1 inh | N370S GC | SMILES
nt | -2.6% | CC(C)c1ccc(-c2c(NCCc3ccccc3)c(=O)c2=O)cc1
-6.7% | 7.8% | CCOC(=O)C1CCN(Cc2cnc(Oc3ccc(OC)cc3)s2)CC1
2.1% | 4.7% | N#Cc1c2n(c3c(=O)n(Cc4ccc(Cl)cc4)cnc13)CCCC2
-3.0% | 6.2% | COc1ccc(/C=C/C(=O)O/N=C(\N)c2ccccc2)cc1OC
2.1% | 3.4% | CCOc1cc(NC(=O)C2CCCO2)c(OCC)cc1NC(=O)C1CC1 (stereo unspecified)
5.3% | 4.8% | O=C(CN1C(=O)C2C3c4ccccc4C(c4ccccc43)C2C1=O)Nc1ccccc1C(=O)O (stereo unspecified)
-5.4% | 2.5% | CN(C)/C=C/C(=O)c1cc(F)cc(C(F)(F)F)c1
3.4% | 2.0% | Cc1cc(Cl)c2ccccc2n1
2.0% | 8.5% | CN(C)c1c(F)cc(C(=O)NC(=O)NCc2cccnc2)cc1F
4.1% | 9.1% | COc1ccc(/C=C/c2nc(-c3ccccc3O)n[nH]2)cc1OC
4.0% | 0.3% | COc1ccc(N2CC(O)=C(c3nc(C)cs3)C2=N)cc1
0.0% | 12.7% | CCN(CC)c1ccc(NC(=O)c2ccccc2)cc1S(=O)(=O)Nc1ccccc1OC

Going on with the list.
TDP1 inh | N370S GC | SMILES
nt | -8.8% | CC(Sc1nncs1)C(=O)Nc1ccc2c(c1)OCCO2 (stereo unspecified)
1.0% | 4.2%[2.35 µM] | Cc1csc(SCc2c(C(=O)O)oc3ccccc23)n1
-5.1% | 2.0% | CN(C)/C=C(\C#N)S(=O)(=O)c1ccccc1
-3.8% | 2.0% | CC(C)C[C@H](NC(=O)C1CC(=O)N(c2ccc3c(c2)OCCO3)C1)C(=O)N1CCCCC1 (stereo partly specified)
-2.5% | 11.8% | CCOCC(=O)Nc1sc2c(c1C(=O)OCC)CCCC2
nt | -12.1% | Cc1c([N+](=O)[O-])cc(C(=O)Nc2ccc3ncccc3c2)cc1[N+](=O)[O-]
4.0% | -4.0% | COC(=O)c1nc(-c2ccc(C)cc2)oc1N(C)C
? | -11.7% | COc1cc(/C=C/C(=O)c2ccc([N+](=O)[O-])o2)ccc1O
1.6% | -5.4% | CCCC(=O)C1=C(O)C(C(=O)OC)C(C)(C)CC1=Nc1ccc(OC)cc1 (stereo unspecified)
7.1% | -26.7%[2.35 µM] | CCCn1c(SCC(=O)OCc2ccccc2)nc2c1c(=O)n(C)c(=O)n2C
5.1% | -7.1% | CN(Cc1nc(Cc2cccc(F)c2)no1)CC1CCOCC1

Compound activity (PubChem BioAssay)

The list is partial, and most or all hits are left out here.
